2A StopGo – FMDV 2A StopGo reporter, luciferase signal. human cells with a luciferase reporter of 2A StopGo recoding; control for the full effect not named in the record. actives 1.2% (n = 410,000). Potency, µM (highest dose often 57.9 µM), inactives show top-dose signal change, negative = less light; active = well fitted falling curve with a large enough effect; inconclusive = small, poorly fitted or top-dose-only effect; inactive = no such curve, though single readings can be large or run the other way; tested in HEK293T cells; further: on the % scale 0 is the no-effect control and ±100 the full control effect; nearly all actives have a fitted effect of over 45% in size; luciferase light after 4 h
RE007 growth inh – less growth of the S. pombe RE007 Vpr strain. actives 0.21% (n = 360,000). Potency, µM (highest dose often 92.2 µM), inactives show at the top dose activity change, negative = less growth. S. pombe RE007 Vpr strain, BacTiter-Glo ATP luminescence, 24 h; control for the full effect not named in the record. AID 651644; active = well fitted falling curve with a large enough effect; inconclusive = small, poorly fitted or top-dose-only effect; inactive = no such curve, though single readings can be large or run the other way;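 further: on the % scale 0 is the no-effect control and ±100 the full control effect; nearly all actives have a fitted effect of over 50% in size; the assay follows cell death caused by Vpr and the record does not say whether a fall means rescue or toxicity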
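Fission yeast RE007 carrying one integrated HIV-1 vpr copy, seeded at OD 0.01 in PMG+AL medium with 23 nL pinned compound. Grown 24 h at 30 degrees; viability read by BacTiter-Glo luminescence after 5 min.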
SARS PLpro yeast – blocks SARS-CoV papain-like protease in a yeast assay | S. cerevisiae expressing SARS-CoV PLpro, growth rescue; control for the full effect not named in the record | Potency, µM (doses to about 32.9 µM), for inactives: at the highest dose activity, positive = growth rescue | actives 0.19% (n = 330,000); active means well fitted rising curve with a large enough effect; inconclusive means small, poorly fitted or top-dose-only effect; inactive means no such curve, though single readings can be large or run the other way; further: 0% is about no effect; nearly all actives have a fitted effect of over 55% in size; growth read by luminescence after 48 h
Active calls of the source: *; ? = inconclusive; [ ] = remark or other dose. Potency means the concentration at half of the fitted maximal effect.

No.	Compound	2A StopGo	RE007 growth inh	SARS PLpro yeast
1	C[C@@]12CCC[C@@](C)(C(=O)O)C1CC[C@@]13C[C@@H](NCc4ccccc4)[C@@](C)(CCC12)C3 (stereo partly drawn)	-17.3%	6.7%	4.8%
2	O=C(Cc1cccc(C(F)(F)F)c1)Nc1cc(S(=O)(=O)N2CCOCC2)ccc1N1CCCC1	-1.6%	0.6%	-2.7%
3	Cc1cccc(C(=O)OCC(=O)N2CCCCCC2)c1O	32.7%[activator]	2.2%	2.3%
4	C[C@@H]1COC(=O)[C@H](NC(=O)OCC2c3ccccc3-c3ccccc32)C/C=C\C[C@@H](CC(=O)N[C@H](CO)Cc2ccccc2)C(=O)N1	-2.6%	-1.8%	-24.5%
5	CC1CCN(c2ccc3c(c2)S(=O)(=O)c2cccc(C(=O)NC4CCCCC4)c2C3=O)CC1	20.6%	2.1%	4.3%
6	C=C(C)[C@@H](O)COc1c2ccoc2cc2oc(=O)ccc12	-28.5%	9.4%	1.8%
7	COC(=O)C1=C(c2ccc(F)cc2OCc2ccccc2)C[C@@H]2CC[C@H]1N2C(=O)NC1Cc2ccccc2C1	-18.3%	2.1%	0.8%
8	O=C(COC(=O)Cc1ccc(Cl)cc1)NCc1cccs1	-1.0%	-7.0%	2.8%
9	Cc1cccc(N2C(=O)C3CCCN3C2=S)c1C (stereo not drawn)	-10.6%	3.6%	-0.2%
10	C[C@@H](NC(=O)c1nc[nH]c1C(=O)N1CCc2ccccc2C1)c1ccccc1	-22.1%	0.2%	1.2%
11	Cc1cc(C)c2c(=O)[nH]cnc2n1	-0.7%	6.9%	1.9%
12	COCCNC(=O)c1cc(-c2ccccc2C)nn1CC1CC(c2cccnc2)=NO1 (stereo not drawn)	-2.5%	4.6%	-30.2%
13	CCOC(=O)N1CCN(C(=O)CNC2CCCCCCC2)CC1	-2.5%	-12.3%	-2.0%
14	CCOC(=O)c1cc(-c2cccc([N+](=O)[O-])c2)nc2[nH]c(=O)[nH]c(=O)c12	-16.3%	-4.4%	-1.5%
15	O=C(/C=C/CCc1ccc2c(c1)OCO2)N1CCCCC1	9.9%	3.1%	-5.3%
16	Cc1noc(C)c1NC(=O)Nc1ccc2c(c1)C(=O)N([C@H](C)CO)C[C@H](C)[C@@H](CN(C)S(C)(=O)=O)O2	-3.6%	5.7%	0.7%
17	CSC(C1CCCC1)n1nnc2ccccc21 (stereo not drawn)	-24.3%	-11.1%	-17.4%
18	O=C(c1cccc(S(=O)(=O)N2CCCC2)c1)N1CCN(Cc2ccccc2)CC1	-1.0%	1.7%	-6.2%
19	O=C(COC(=O)[C@@H]1CC(O)CN1S(=O)(=O)c1ccc2c(c1)OCCO2)Nc1cc(F)ccc1F (stereo partly drawn)	-6.1%	-1.3%	-9.4%
20	CC(=O)c1c(C)[nH]c(C(=O)OCC(=O)c2c[nH]c3ccccc23)c1C	-18.5%	-7.6%	-1.5%
21	O=C(N[C@H]1C/C=C\C(c2ccc(F)cc2)N(Cc2ccccc2)C(=O)C1)OCC1c2ccccc2-c2ccccc21 (stereo partly drawn)	?	-6.0%	-9.9%
22	CC(C)(C)OC(=O)NCCCCCNC(=O)c1[nH]cnc1C(=O)Nc1cccc(Cl)c1	?	3.9%	-0.5%
23	CCN1C(=O)[C@H]2[C@@H](c3ccc(-c4cccc(Cl)c4)cc3)N[C@@](Cc3ccccc3)(C(=O)OC)[C@H]2C1=O	?	4.7%	-14.0%
24	CSCCC(NC(=O)c1ccccc1Cl)C(=O)NCCc1ccccn1 (stereo not drawn)	4.0%	-0.1%	1.8%
25	CC1=CN(S(=O)(=O)c2ccc(C)cc2)C[C@@H]2[C@H]3CC[C@H](C3)[C@H]12	4.1%	6.7%	-27.6%
26	CCc1ccccc1C1=CC(=O)C[C@H](c2ccc(OC)cc2)C1	-4.9%	6.6%	2.8%
27	COC(=O)C1=C(c2ccc(-c3ccccc3)c(F)c2)C[C@@H]2CC[C@H]1N2C(=O)N1CCCC1	-8.1%	3.1%	-1.0%
28	O=C(OCc1c(-c2ccccc2)ncc2ccccc12)N1CCOCC1	-3.8%	-2.1%	2.3%
29	O=C(C[C@H]1C/C=C\C[C@H](NC(=O)OCC2c3ccccc3-c3ccccc32)C(=O)OC[C@H](Cc2ccccc2)NC1=O)N[C@H](CO)Cc1ccccc1	-19.4%	-13.8%	-5.3%
30	CCN(CC)C(=O)[C@H]1CC(CC(=O)NCCN2CCOCC2)C(=O)N2CCc3c([nH]c4ccccc34)[C@]12C (stereo partly drawn)	-10.1%	-19.4%	-4.4%
31	COc1ccc(S(=O)(=O)N2CCN(C(=O)CN3C(=O)NC(C)(C)C3=O)CC2)cc1	-13.6%	6.4%	0.2%
32	Cn1ccnc1SCC(=O)Nc1ccc(SC(F)F)cc1	52.2%[activator]	-12.7%	-3.6%
33	COc1ccc2sc(-c3ccc(N(C)C)cc3)c(C#CCO)c2c1	-5.8%	19.0%	2.2%
34	CCOC(=O)CCCCCC(=O)Nc1ccc2c(c1)CC(=O)N([C@@H](C)CO)C[C@H](C)[C@@H](CN(C)Cc1ccccc1)O2	-16.1%	1.5%	-13.7%
35	CCN(C[C@H]1N[C@@](Cc2ccccc2)(C(=O)OC)[C@H]2C(=O)N(Cc3ccccc3)C(=O)[C@@H]12)S(=O)(=O)c1ccccc1	-24.6%	2.4%	-5.0%
36	COc1ccc(S(=O)(=O)Nc2ccc3c(c2)C(=O)N([C@@H](C)CO)C[C@H](C)[C@H](CN(C)S(=O)(=O)c2ccc(F)cc2)O3)cc1	-15.8%	2.0%	-3.2%
37	CCCOc1ccc(C(=O)CCC(=O)Nc2ccc(N3CCN(C)CC3)cc2)cc1	-3.3%	-7.8%	3.7%
38	CC(C)(CNC(=O)CNC(=O)C1CCCCC1)N1CCOCC1	1.7%	-26.0%	2.5%
39	Cc1ccc(C(=O)NNC(=O)COc2ccc(Cl)cc2C)o1	-6.3%	-4.4%	-5.6%
40	Cc1ccc2c(c1)CCCN2CC(=O)Nc1cc(S(=O)(=O)N2CCCC2)ccc1Cl	-3.9%	-2.3%	2.3%

Some of the entries so far, with each value named.
[32] Cn1ccnc1SCC(=O)Nc1ccc(SC(F)F)cc1
  2A StopGo: 52.2%[activator]	RE007 growth inh: -12.7%	SARS PLpro yeast: -3.6%
[33] COc1ccc2sc(-c3ccc(N(C)C)cc3)c(C#CCO)c2c1
  2A StopGo: -5.8%	RE007 growth inh: 19.0%	SARS PLpro yeast: 2.2%
[34] CCOC(=O)CCCCCC(=O)Nc1ccc2c(c1)CC(=O)N([C@@H](C)CO)C[C@H](C)[C@@H](CN(C)Cc1ccccc1)O2
  2A StopGo: -16.1%	RE007 growth inh: 1.5%	SARS PLpro yeast: -13.7%
[35] CCN(C[C@H]1N[C@@](Cc2ccccc2)(C(=O)OC)[C@H]2C(=O)N(Cc3ccccc3)C(=O)[C@@H]12)S(=O)(=O)c1ccccc1
  2A StopGo: -24.6%	RE007 growth inh: 2.4%	SARS PLpro yeast: -5.0%

Next section:
No.	Compound	2A StopGo	RE007 growth inh	SARS PLpro yeast
41	CCN(CC)CCCNC(=O)CCC(=O)Nc1ccc2nc(N3CCC(C)CC3)cc(C)c2c1	1.7%	-4.5%	-3.2%
42	O=C(CN1C(=O)NC(c2ccccc2)(c2ccccc2)C1=O)NC1CCCC1	-15.5%	-12.1%	0.8%
43	COc1ccc(CCN(C)C(=O)CSc2nnnn2C)cc1OC	5.2%	-4.8%	1.7%
44	Cc1c(C(=O)OCc2nnc(-c3ccccc3)o2)oc2ccccc12	-10.2%	-14.7%	-1.3%
45	CCOc1ccc(C(CC(=O)O)NC(=O)C(c2ccccc2)c2ccccc2)cc1OC (stereo not drawn)	-2.5%	-5.3%	-0.9%
46	C[C@H](CO)N1C[C@H](C)[C@@H](CN(C)CC2CCCCC2)Oc2c(NS(=O)(=O)c3ccccc3)cccc2C1=O	138.1%[activator]	3.3%	-0.7%
47	CC1(NC(=O)CN2CCN(c3cnn(-c4ccccc4)c(=O)c3Cl)CC2)CCS(=O)(=O)C1 (stereo not drawn)	-19.2%	5.9%	0.2%
48	O=C(CCNC(=O)c1ccc(Cl)cc1)NCCCN1CCOCC1	2.1%	-7.2%	-2.9%
49	CC1O[C@H](OC2C(COC3OC(CO)C(O)[C@H](O)C3O)OC(OC3CC[C@]4(C)C(CC[C@@]5(C)[C@@H]4C=C[C@]46OC[C@@]7(CCC(C)(C)C[C@H]74)C(O)C[C@@]56C)C3(C)C)C(O)C2O)C(O)C(O)C1O (stereo partly drawn)	4.8%	9.0%	8.0%
50	Cc1cccc(C)c1NC(=O)CSc1n[nH]c(=O)n1C1CC1	-4.9%	23.4%	-2.6%
51	COc1ccc([C@H]2CC(=O)C=C(c3cc4ccccc4s3)C2)cc1	27.6%	-8.4%	-14.8%
52	CN(CC(=O)Nc1cccc(F)c1)C(=O)c1ccc(OCc2ccccc2)cc1	-4.8%	7.0%	-41.0%
53	COc1c2ccc(OCC/C(C)=C/C(=O)C=C(C)C)cc2nc2occc12	-12.4%	-16.1%	7.0%
54	O=C(/C=C/c1cn(-c2ccccc2)nc1-c1cccnc1)N1CCCCC1	?	3.9%	-0.7%
55	CN(CC(=O)Nc1ccc(OC(F)(F)F)cc1)C(=O)Cc1cccs1	-13.6%	2.5%	-1.8%
56	O=C(N/N=C/c1cccc([N+](=O)[O-])c1O)C(O)(c1ccccc1)c1ccccc1	-5.0%	4.7%	4.4%
57	O=C(NNC(=O)C1CCN(C(=O)Nc2ccccc2)CC1)c1ccc([N+](=O)[O-])cc1	1.8%	2.5%	5.6%
58	Cc1cc(Cn2nc(C(=O)NCc3cccs3)cc2-c2ccccc2)on1	19.0%	-2.8%	-4.7%
59	COc1cc(C(=O)NC2CCN(C)CC2)ccc1Nc1ncc2c(n1)N(C1CCC(O)CC1)CCC(=O)N2C (stereo not drawn)	-9.8%	-19.4%	-1.2%
60	COc1ccccc1NC(=O)COC(=O)C1CCCC1	4.8%	2.2%	-3.7%

(further entries)
Fields: 2A StopGo	RE007 growth inh	SARS PLpro yeast
61) CC(C)(NC(=O)NC(CO)c1ccccc1)c1cccc(C(C)(C)NC(=O)NC(CO)c2ccccc2)c1 (stereo not drawn)
    11.8%	13.1%	-14.2%
62) NC(=O)c1cc([N+](=O)[O-])c(Cl)cc1NCc1ccccn1
    -22.0%	-9.1%	-8.6%
63) COc1ccc(/C=C/C(=O)OCC(=O)Nc2c(C)cccc2C)cc1
    13.3%	-12.8%	2.0%
64) O=C(CSc1ccsc1[N+](=O)[O-])Nc1cccc(F)c1
    -9.7%	7.3%	-1.2%
65) CCC(C)Sc1ccc([C@H]2N[C@@](Cc3ccccc3)(C(=O)OC)[C@H]3C(=O)N(CC)C(=O)[C@@H]23)cc1OC (stereo partly drawn)
    -21.3%	5.4%	-1.0%
66) C[C@H]1COC(=O)[C@@H](CC(=O)OC(C)(C)C)C/C=C\C[C@@H](CC(=O)N[C@H](CO)Cc2ccccc2)C(=O)N1
    -16.6%	-9.4%	-0.3%
67) CS(=O)(=O)c1ccc(Cl)c(NC(=O)CN2CCCC2c2ccc3c(c2)OCCCO3)c1 (stereo not drawn)
    -19.3%	2.8%	-3.4%
68) CN(CC(=O)Nc1cccc(F)c1)CC(=O)N(C)c1c(N)n(Cc2ccccc2)c(=O)[nH]c1=O
    -14.0%	-9.3%	-3.2%
69) CC1(NC(=O)CSc2nnc(-c3ccco3)n2Cc2ccccc2)CCS(=O)(=O)C1 (stereo not drawn)
    -11.2%	10.5%	-2.9%
70) Cc1ccc(S(=O)(=O)N2CCCCC2)cc1NC(=O)COC(=O)C1(C)CC1(Cl)Cl (stereo not drawn)
    ?	19.3%	-2.6%
71) COc1ccccc1OCC(=O)OCc1cc(-c2ccco2)on1
    -2.0%	-19.8%	3.5%
72) Cc1ccc(S(=O)(=O)N(C)CC(=O)NCC(c2ccc(F)cc2)N2CCOCC2)cc1 (stereo not drawn)
    -14.4%	-0.2%	-1.0%
73) COc1ccc(Br)cc1CN(C)C(=O)Cc1ccc(OC)c(S(=O)(=O)N2CCOCC2)c1
    1.2%	59.7%	3.3%
74) CC(C)c1ccc(S(=O)(=O)N2CCN(C(=O)CCNC(=O)Nc3ccccc3)CC2)cc1
    -22.5%	-10.4%	-0.1%
75) COc1ccc(NC(=O)COC(=O)C2CCN(S(=O)(=O)c3cccs3)CC2)cc1
    6.3%	2.7%	-9.3%
76) Cc1ccc(S(=O)(=O)N2CCOCC2)cc1C(=O)N1CCN(S(=O)(=O)c2cccc(F)c2)CC1
    -6.4%	-17.5%	1.8%
77) O=C(COC(=O)c1ccc(O)cc1)Nc1cc(S(=O)(=O)N2CCOCC2)ccc1Cl
    ?	1.3%	1.1%
78) COc1ccc(NC(=O)C2CC2)cc1S(=O)(=O)N1CCOCC1
    -1.7%	1.9%	18.5%
79) COc1ccc(CN2CCN(CC(=O)Nc3ccccc3C(=O)NC3CC3)CC2)cc1F
    -22.8%	1.5%	5.6%
80) O=C(CN1CCN(CC(=O)Nc2ccc(F)cc2)CC1)NCC1(N2CCOCC2)CCCCC1
    -7.8%	-19.4%	-0.4%

Assay outcomes from PubChem BioAssay.

An excerpt; rates above refer to the full screens.
